Measles inh – inhibitors of measles virus growth in cells, primary screen, measles RdRp inhibitor project, cell-based, single point, HTS | infected Vero cells, GFP fluorescence, 64 h; hits give low values | z-score (concentration not given with the values) | 33,000 compounds, 0.1% hits;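 active = z-score under -3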;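 note: score is relative to mean and SD of the compound wells of a plate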
* hit, by the source's call.

SMILES	Measles inh
O=C(Oc1ccc2c(=O)c(-c3ccccc3Cl)coc2c1)c1ccc(F)cc1	-0.66
CC1(C)CC(=O)C2=C(C1)Nc1nc(SCCN3CCOCC3)[nH]c(=O)c1C2c1ccc(Br)cc1 (configuration not stated)	-1.27
Cc1ccc2c(c1)N(CCC(=O)NCc1cccs1)C(=O)C(C)O2 (configuration not stated)	-0.57
Cc1[nH]c2ccccc2c1C(=O)CC(C)C	-0.17
O=C(Nc1ccc2oc(-c3ccccc3F)nc2c1)c1cccc(Br)c1	1.23
Cc1cc(C)n(-c2nc3ccccc3nc2Nc2ccc(Cl)cc2)n1	-0.63
CCOC(=O)c1sc(-c2ccccc2)cc1NC(=O)c1cc2ccccc2oc1=O	0.05
Cc1nc2ccccc2n1-c1nc(-c2ccco2)cc(C(F)(F)F)n1	0.22
COc1cc(OC)c(NC(=O)Cc2c(C(=O)O)[nH]c3ccc(Cl)cc23)cc1Cl	0.28
Cc1cccc(Nc2nc(-c3ccc([N+](=O)[O-])cc3)nc3ccccc23)c1C	0.16
O=[N+]([O-])c1cccc(Cl)c1N1CCN(S(=O)(=O)c2cccc3nsnc23)CC1	-0.25
CCOc1ccc(Cl)cc1-c1nc2sc3c(c2c(=O)[nH]1)CCCC3	-0.19
O=C(Nc1ccc2c(c1)OCCO2)C1CCN(S(=O)(=O)c2ccc(Br)s2)CC1	-1.19
Nc1nc(SCCCC(=O)NCCO)nc2sc3c(c12)CCCC3	-1.07
O=C(OCCN1C(=O)c2cccc3c(N4CCOCC4)ccc(c23)C1=O)c1ccccc1[N+](=O)[O-]	0.81
CCOCCCNC(=O)c1ccc2c(c1)ncn2-c1cc(C)ccc1OC	-0.4
COc1ccc(C(=O)Nc2ccccc2)cc1S(=O)(=O)NCc1ccccc1	0.79
Cc1ccc(-n2cc(-c3ccc4c(c3)OCO4)[nH]c2=S)cc1	0.09
CSc1nc2ccc3nc(NC(=O)CN4C(=O)c5ccccc5C4=O)sc3c2s1	-0.36
O=C(CN1CCN(Cc2cccc(Cl)c2)C1=O)NCc1ccccc1Cl	0.05

Structures above that contain a thiophene ring, fused or not (five):
SMILES	Measles inh
Cc1ccc2c(c1)N(CCC(=O)NCc1cccs1)C(=O)C(C)O2 (configuration not stated)	-0.57
CCOC(=O)c1sc(-c2ccccc2)cc1NC(=O)c1cc2ccccc2oc1=O	0.05
CCOc1ccc(Cl)cc1-c1nc2sc3c(c2c(=O)[nH]1)CCCC3	-0.19
O=C(Nc1ccc2c(c1)OCCO2)C1CCN(S(=O)(=O)c2ccc(Br)s2)CC1	-1.19
Nc1nc(SCCCC(=O)NCCO)nc2sc3c(c12)CCCC3	-1.07

Continuation:
SMILES	Measles inh
NS(=O)(=O)c1ccc(O)c(N2C(=O)c3cccc4c([N+](=O)[O-])ccc(c34)C2=O)c1	4.12
Cc1ccc(-c2csc3ncn(CC(=O)Nc4nc5ccccc5s4)c(=O)c23)cc1	1.11
CCc1ccc(N(C)S(=O)(=O)c2ccc3[nH]cc(C(=O)N4CCC(C)CC4)c(=O)c3c2)cc1	-1.41
Cc1cc(C)c(C#N)c(Cl)n1	0.13
C=CCN1C(=O)c2ccccc2Sc2ccc(C(=O)N3CCN(Cc4ccccc4)CC3)cc21	0.8
COc1cc(C(=O)N2CCN(C34CC5CC(CC(C5)C3)C4)CC2)cc(OC)c1OC	0.17
Cc1cccc(C(=O)Nc2ccc(S(=O)(=O)N3CCCCC3c3cccnc3)cc2)c1 (configuration not stated)	-0.65
COc1ccc(-c2cc(C)[nH]c(=S)n2)cc1	1.12
COC(=O)c1ccc(Nc2nc(-c3ccccc3O)nc3ccccc23)cc1	-1.97
CC(=O)NC1=NN(C(C)=O)C(c2cccc(OC(C)=O)c2)S1 (configuration not stated)	0.44
O=C(NS(=O)(=O)c1ccc(Cl)cc1)c1ccccc1	1.23
NS(=O)(=O)c1ccc(NC(=O)CSc2nnc(-c3ccco3)c(-c3ccco3)n2)cc1	-0.02
CCOC(=O)c1c(NC(=O)CN2C(=O)c3cccc4cccc(c34)C2=O)sc(C)c1C	0.66
Nc1nnc(COc2ccc(Br)cc2)s1	0.17
COc1ccccc1C1CC(=O)C2=C(C1)NC(C)=C(C(=O)OCC1CCCO1)C2c1cc(Br)c(O)c(OC)c1 (configuration not stated)	-0.32
CCCSc1nc2c([nH]c3ccccc32)c(=O)n1-c1ccc([N+](=O)[O-])cc1	-1.35
Cc1ccc(-c2ccccc2)n1-c1ccccc1C(=O)O	0.31
COc1cccc2sc(=NC(=O)c3ccc(S(=O)(=O)N4CC(C)OC(C)C4)cc3)n(C)c12 (configuration not stated)	-0.28
O=C(Nc1c2c(nn1-c1ccc(F)cc1)CSC2)c1ccc(Br)cc1	-0.35
Cc1cccc(NC2OC(=O)c3ccccc32)c1C (configuration not stated)	-0.24
COc1ccc(OC)c(C2C(=O)N(C3CCC(C)CC3)CC(=O)N2CCC2=CCCCC2)c1 (configuration not stated)	1.54
COc1cc(CNc2ccc(F)cc2)cc(OC)c1OC	-0.59
O=C1c2cc([N+](=O)[O-])cc3cc([N+](=O)[O-])cc(c23)C(=O)N1c1ccccc1Cl	-0.48
CN(CC(=O)N1CCN(C2CCCC2)CC1)S(=O)(=O)c1cccc2nsnc12	-1.34
CC(C)=C1C2C=CC1C1C(=O)N(c3ccc(Cl)cc3[N+](=O)[O-])C(=O)C21 (configuration not stated)	0.54
C(=Cc1ncccn1)c1ccccc1	1.7
O=C(NCc1ccccc1Cl)c1cccn2c(=O)c3cc(Cl)ccc3nc12	0.09
O=[N+]([O-])c1nn(-c2ccc3c(c2)OCCO3)n(O)c1=NC1CCCCCC1	-0.86
CS(=O)(=O)N(Cc1ccc(Cl)cc1)c1ccc(C(=O)N2CCCCCC2)cc1	-1.03
O=C(NCc1n[nH]c(=S)n1-c1ccc(Br)cc1)c1cccs1	-0.65
CCCSc1nnc2n(-c3ccccc3)c(=O)c3c(C)c(C)sc3n12	-0.21
O=C1C(=O)N(CC2CCCO2)C(c2cccc(F)c2)/C1=C(\O)c1ccccc1 (configuration not stated)	0.12
COc1ccc2cc3cc(C(=O)Nc4ccc(Oc5ccccc5)cc4)oc3nc2c1	0.02
COc1cc2c(cc1NC(=O)Nc1cc3oc4ccccc4c3cc1OC)oc1ccccc12	1.28
COC(=O)C1=CN(CC23CC4CC(CC(C4)C2)C3)C=C(C(=O)OC)C1c1ccc2c(c1)OCO2	-0.7
CCCCn1c(=S)[nH]c2c(oc3ccc(Cl)cc32)c1=O	-0.48
CC1=C(C(=O)OC2CCCCC2)C(c2cccc(Br)c2)C2=C(CC(C)(C)CC2=O)N1 (configuration not stated)	-0.53
CC(C)c1ccc(NC(=O)C2C3C=CC4(O3)C2C(=O)N(Cc2cccnc2)C4C(=O)NC2CCCCC2)cc1 (configuration not stated)	-0.55
COc1ccc(-c2cc(C(F)(F)F)n3nc(C(=O)N4CCN(C)CC4)cc3n2)cc1OC	-0.91
O=C1c2ccccc2C(=O)N1c1ccc(OCC(O)COc2cccc3ccccc23)cc1 (configuration not stated)	-0.88
O=C(O)C(Cc1ccccc1)N1C(=O)c2ccccc2C1=O (configuration not stated)	0.96
O=[N+]([O-])c1ccc(S(=O)(=O)NCCN2CCOCC2)cc1	1.49
CCc1ccc(Sc2cc(C(=O)NCCCN3CCCCC3)c3ccccc3n2)cc1	-1.57
Cc1cc(C)nc(NC(=NS(=O)(=O)c2ccc(Br)cc2)N2CCC(C)CC2)n1	-0.54
C=CCn1cc(C(=O)N2CCN(c3cccc(Cl)c3)CC2)c(=O)c2cc(S(=O)(=O)N3CCc4ccccc4C3)ccc21	-0.81
COc1cc2c(cc1NC(=O)c1ccc(Br)o1)oc1ccccc12	0.87
Cc1ccc(C)c(NC(=O)CSc2nccn2-c2cccc(Cl)c2)c1	-1.33
CC(=O)c1ccc(S(=O)(=O)N2CCOCC2)cc1	1.33
CCN(CC)c1cc(O)c2c(c1N)C(=O)c1ccccc1C2=O	-0.86
CCCOc1ccc(OC(=O)c2ccc(Br)o2)cc1	-0.79
COc1ccc(-c2nc(SCc3ccccc3C)c3c(=O)n(C)c(=O)n(C)c3n2)cc1	1.77
O=C(O)C1CCC(CNCc2ccc(Cl)c([N+](=O)[O-])c2)CC1 (configuration not stated)	0.12
O=[N+]([O-])c1cc(Br)c(O)c(C=Nc2ccc3oc(Cc4ccc(Cl)cc4)nc3c2)c1	-1.39
Nc1nnc(-c2ccccc2Cl)s1	0.55
CCOc1ccc(NC(=O)CSc2nc3ccsc3c(=O)n2-c2ccc(Br)cc2)cc1	-1.85
COC(=O)C1=C(C(=O)OC)SC(=C2C(=S)C(C)(C)N(C(=O)CN3C(=O)C4CCCCC4C3=O)c3ccc(OC)cc32)S1 (configuration not stated)	0.65
CCCCN(C=Nc1sc2c(c1C#N)CCCCC2)CCCC	0.05
O=C(CN1C(=O)CSc2ccc(S(=O)(=O)N3CCCCCC3)cc21)NCc1ccc2c(c1)OCO2	-1.23
CC1CCN(S(=O)(=O)c2ccc3nc(-c4ccncc4)cc(C(=O)NC4CCCCCC4)c3c2)CC1	0.9
COc1ccc(NC(=O)CCN2C(=O)C3C4C=CC(C4)C3C2=O)cc1Cl (configuration not stated)	0.6
Continued:
SMILES	Measles inh
NC(=O)C1CCN(C(=O)CCn2c(=O)[nH]c3ccccc3c2=O)CC1	-0.92
COc1ccc(C=NCC2(c3ccccc3)CCCC2)c(OC)c1	1.24
O=C(CSc1cccc2cccnc12)OCC(=O)c1ccc(F)cc1	-0.68
CCOc1cccc2c1OC1(C)C(C(=O)N(C)C)C2NC(=S)N1c1ccccc1C (configuration not stated)	-0.25
COc1ccc(-c2nc(SCC(=O)Nc3ccc(Br)cc3)c3c(=O)n(C)c(=O)n(C)c3n2)cc1	-0.93
CN(C)CCNC(=O)C12CC3(C)CC(C)(CC(C)(C3)C1)C2	-1.13
CC(C)CCNC(=O)C1CCCN(S(C)(=O)=O)C1 (configuration not stated)	-0.03
O=C(CSc1nc2c(sc3ccccc32)c(=O)n1CCc1c[nH]c2ccccc12)NC1CCCC1	1.59
CN1CCN(C(=O)c2ccc3c(c2)OCCO3)CC1	1.61
O=C1CC(N2CCN(Cc3ccc4c(c3)OCO4)CC2)C(=O)N1c1ccccc1Cl (configuration not stated)	-0.09
CCCCN(C)C(=O)c1cc2c(=O)n3cccc(C)c3nc2s1	-1.1
Cc1ccc(-n2c(=O)c3ccccc3n(CC(=O)N3CCC(C)CC3)c2=O)cc1	-0.4
CCOc1cc(C(=O)N2CC(=O)Nc3ccc(C)cc3C2c2ccccc2)cc(OCC)c1OCC (configuration not stated)	-0.34
O=[N+]([O-])c1ccc(N2CCN(CCO)CC2)c(S(=O)(=O)N2CCOCC2)c1	1.1
CCC1Sc2ccccc2N(CC(=O)NCc2ccccc2OC)C1=O (configuration not stated)	1.45
CC(=S)Nc1ccc(-c2ccccc2)s1	2.5
O=C(C(Cc1ccccc1)N1C(=O)c2ccccc2C1=O)N1CCOCC1 (configuration not stated)	0.33
CCOc1ccccc1NC(=O)C1=C(C)NC(=O)NC1c1cccc2ccccc12 (configuration not stated)	-1.09
CC(C)(C)c1ccc(-c2nc3scc(-c4ccccc4)c3c(=O)o2)cc1	0.92
COc1ccc(C2C(C(=O)N3CCN(c4ccccn4)CC3)CCC(=O)N2c2cc(OC)c(OC)c(OC)c2)cc1 (configuration not stated)	0.33

Part of the list above in order of molar mass, largest number first:
SMILES	Measles inh
COc1ccccc1C1CC(=O)C2=C(C1)NC(C)=C(C(=O)OCC1CCCO1)C2c1cc(Br)c(O)c(OC)c1 (configuration not stated)	-0.32
Cc1cccc(Nc2nc(-c3ccc([N+](=O)[O-])cc3)nc3ccccc23)c1C	0.16
Cc1nc2ccccc2n1-c1nc(-c2ccco2)cc(C(F)(F)F)n1	0.22

Entries from the list above that contain a COOH group, in the order listed:
SMILES	Measles inh
COc1cc(OC)c(NC(=O)Cc2c(C(=O)O)[nH]c3ccc(Cl)cc23)cc1Cl	0.28
Cc1ccc(-c2ccccc2)n1-c1ccccc1C(=O)O	0.31
O=C(O)C(Cc1ccccc1)N1C(=O)c2ccccc2C1=O (configuration not stated)	0.96
O=C(O)C1CCC(CNCc2ccc(Cl)c([N+](=O)[O-])c2)CC1 (configuration not stated)	0.12

(more compounds)
SMILES	Measles inh
Cc1ccc(S(=O)(=O)NCCC(=O)N2CCCCC2)cc1	-0.64
CC(=O)c1cccc(NC(=O)c2cc(-c3ccc(Cl)s3)nc3ccccc23)c1	-0.87
CC1(C)C(=O)N(Cc2ccc([N+](=O)[O-])cc2)c2ccccc2N1C(=O)c1ccc(Br)cc1	-0.47
CCOc1cc(C2/C(=C(\O)c3ccc(OC)cc3)C(=O)C(=O)N2c2ccc(C)c(Br)c2)ccc1O (configuration not stated)	-1.53
CCOC(=O)c1c(C)[nH]c(C(=O)CSc2nc(C)nc3c2cnn3-c2ccccc2)c1C	0.73
Cc1c(Cl)cccc1NC(=O)CCCCCN1C(=O)c2cccc([N+](=O)[O-])c2C1=O	-0.45
Cc1c(-c2ccc([N+](=O)[O-])o2)[n+](=O)c2c(n1[O-])CCCC2	0.37
Cc1ccc2cc3cc(C(=O)NC(C)c4ccc5c(c4)OCCO5)sc3nc2c1 (configuration not stated)	1.16
O=C1CN(c2ccccc2)C(=O)N1	0.04
Cc1cccc(NC(=O)c2c(-c3ccccc3Cl)noc2C)c1NC(=O)c1ccccc1	-0.5
Cc1ccc2c(c1)N(CCC(=O)NC(C)c1ccccc1)C(=O)CO2 (configuration not stated)	1.54
COc1ccc(NC(=O)c2c(N)sc3c2CCCC3)cc1	-0.06
Cc1ccc(-c2nnc(Nc3cccc(C(F)(F)F)c3)c3ccccc23)cc1S(=O)(=O)NCC1CCCO1 (configuration not stated)	0.61
COc1ccc(N2C(=O)CSC2c2ccc(Cl)cc2)c(OC)c1 (configuration not stated)	-1.43
O=C(c1coc(=O)c2ccccc12)N1CCN(c2ccccc2F)CC1	2.52
Cc1ccc(S(=O)(=O)NCC2CCC(C(=O)NCc3cccs3)CC2)cc1 (configuration not stated)	0.32
Cc1ccc2nc(SCC(=O)Nc3cccc(C(F)(F)F)c3)[nH]c2c1	-0.26
COc1ccc2cc(NC(=O)c3ccc(Cl)c([N+](=O)[O-])c3)c(=O)oc2c1	-0.18
N#Cc1nc(COc2ccccc2F)oc1NCc1ccco1	-0.51

Bioassay records from PubChem BioAssay.

Some of the compounds tested. The share of hits here may be higher or lower than overall.
